Arbovirus inh – antivirals against arbovirus infection, primary screen, cell-based, full library, 10K replicate subset. arbovirus infection cell-based antiviral screen. inhibition, % at 10 µM. AID 1251, 2008. 200,000 compounds, 0.37% hits;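 active = inhibition from about 30%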;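 note: bluetongue infection of BSR cells; cell survival read as ATP light after 72 h; 0% = infected wells without compound and 100% = uninfected wells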
Mtb H37Rv – M. tuberculosis H37Rv growth inhibitors, H37Rv strain (AID 1626) | M. tuberculosis H37Rv growth inhibition; higher % means a stronger effect | inhibition, % at 10 µM, or IC50 in µM where a hit was titrated | 220,000 compounds, 0.95% hits;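 active = confirmed in a dose series; inconclusive = inhibition above 80% but not taken into the dose series; inactive = below 80% or under 30% at every dose of the series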;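 note: bacteria incubated seven days before Alamar blue readout; 0% = bacteria only wells and 100% = bacteria with antibiotic wells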
RecA splice inh – Mtb RecA intein splicing inhibitors, primary screen, biochemical, fluorescence, HTS; cell-free RecA intein splicing; inhibition, %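 (about 9 µM by stock and volumes)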; 290,000 compounds, 0.75% hits; in the data active = inhibition above about 30%; inconclusive = no clear call, values can overlap the other calls;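 note: 0% = vehicle wells and 100% = reference inhibitor control wells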
Target sequence (P9WHJ3 whole entry, looked up, canonical isoform): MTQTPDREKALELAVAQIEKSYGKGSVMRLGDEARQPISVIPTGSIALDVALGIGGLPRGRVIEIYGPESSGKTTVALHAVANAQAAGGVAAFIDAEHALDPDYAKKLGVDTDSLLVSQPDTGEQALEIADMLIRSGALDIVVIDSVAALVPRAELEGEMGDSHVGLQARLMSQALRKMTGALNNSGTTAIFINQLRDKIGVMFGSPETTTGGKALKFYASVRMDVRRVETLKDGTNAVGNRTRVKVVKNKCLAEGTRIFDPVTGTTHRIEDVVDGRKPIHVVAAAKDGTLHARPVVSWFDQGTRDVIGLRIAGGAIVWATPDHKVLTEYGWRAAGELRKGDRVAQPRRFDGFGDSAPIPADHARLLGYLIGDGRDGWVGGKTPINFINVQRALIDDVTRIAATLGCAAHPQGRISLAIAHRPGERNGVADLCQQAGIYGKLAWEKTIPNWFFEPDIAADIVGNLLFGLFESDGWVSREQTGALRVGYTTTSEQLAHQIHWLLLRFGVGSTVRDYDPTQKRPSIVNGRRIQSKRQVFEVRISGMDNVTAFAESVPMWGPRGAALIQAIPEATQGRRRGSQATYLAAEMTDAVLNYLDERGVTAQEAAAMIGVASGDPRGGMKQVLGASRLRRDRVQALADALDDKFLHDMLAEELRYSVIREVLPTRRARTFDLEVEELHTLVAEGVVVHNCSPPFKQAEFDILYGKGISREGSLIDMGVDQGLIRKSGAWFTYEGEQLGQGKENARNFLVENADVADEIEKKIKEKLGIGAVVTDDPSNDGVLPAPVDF
Mtb bLac sens – beta-lactam sensitization of Mtb H37Rv, H37Rv. M. tuberculosis H37Rv growth with meropenem, percent inhibition; hits of this screen are not shown here. inhibition, % at 25 µM. 330,000 compounds, 0.27% hits. AID 434955, 2010;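 active = about 74% or more and at least 40 points above the plate without the antibiotic, then above 30% in a dose series; inconclusive = first-round hits that could not be retested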;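 note: growth measured after seven days incubation then overnight dye step; 0% = bacteria only wells and 100% = bacteria with antibiotic; twin plates without the antibiotic show which effects depend on it; some results filed as inactive read as strong as hits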
YopH PTP inh – YopH tyrosine phosphatase inhibitors, primary screen, biochemical, fluorescence Ex485/Em525 | YopH tyrosine phosphatase [Yersinia enterocolitica] | inhibition, %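 (about 10 µM by stock and volumes)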 | AID 898, 2007 | 140,000 compounds, 0.16% hits;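 active = inhibition of 50% or more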;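 note: controls were vehicle for no effect and minimum signal wells for full effect; inactives centre near -20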
Arbovirus inh repeat – second read-out of Arbovirus inh, no call of its own (marks repeat the call); inhibition, %; measured here: 10K subset replicate screen; many hits read low in the repeat;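 first of two repeat runs on a subset; 0% = infected and 100% = uninfected wells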
* marks the source's active call; other numbers are inactive results; ? = inconclusive; . = not tested or not shown. Not all compounds are listed. The share of hits here may be higher or lower than overall.

SMILES	Arbovirus inh	Mtb H37Rv	RecA splice inh	Mtb bLac sens	YopH PTP inh	others
COc1cc(C(=O)NC2Cc3ccccc3C2)ccc1OC1CCN(C(C)=O)CC1	.	.	2.9	-4	.
COc1ccc2[nH]cc(CCNC(=S)NCCc3ccccc3)c2c1	0	-3%	-0.5	50	.
Cc1ccc(-n2ncc3c2CC(C)(C)CC3NC(=O)CCc2ccncc2)cc1 (centres undefined)	.	.	1.7	-7	.
COc1ccc(NC(=S)N(CCc2c(C)[nH]c3ccccc23)Cc2cccnc2)cc1	8	.	3.0	-1	-40
O=C(CSCc1ccc(F)cc1)Nc1ccc(F)cc1	9	-3%	2.5	63	-31
O=C(CCc1nnc(CCCc2ccccc2)o1)NCC(F)(F)F	8	-5%	0.4	-2	.
CCN(C(=O)c1cc2cc3ccc(C)cc3nc2o1)c1ccc(OC)cc1	-1	46%	3.7	83	-3
COc1ccc(-c2cc(C(=O)Nc3nc4ccccc4s3)c3ccccc3n2)cc1OC	20	4µM*	-1.1	96	-12
COc1cccc(/C=C2\SC(=O)NC2=O)c1OCc1ccc(C(=O)O)cc1	13	1%	-2.0	-4	.
O=C1CN(C(=O)COC(=O)CCNS(=O)(=O)c2ccc(Cl)cc2)c2ccccc2N1	.	-10%	0.3	-4	.
O=C(O)C(c1ccccc1)N1C(=O)c2cccc3cccc(c23)C1=O (centres undefined)	.	.	-3.0	-5	.
COc1cccc(C(C)NC(=S)NCc2ccc(F)cc2)c1 (centres undefined)	.	.	12	-6	.
Cn1c(=O)[nH]c(=O)c2c1nc(SCCO)n2Cc1ccccc1Cl	.	.	-0.1	1	.
CCN1C(=O)c2cccc3c(S(=O)(=O)NC(Cc4c[nH]c5ccccc45)C(=O)O)ccc1c23 (centres undefined)	5	-2%	-7.1	2	-30
Cc1ccccc1OCC(=O)OCC(=O)NCc1ccco1	.	.	1.7	3	.
COc1ccc(SCCN2CCN(CC(C)C)CCC2=O)cc1	.	-5%	0.0	-5	.
O=C1Nc2ccc(Br)cc2C1(O)c1ccccc1 (centres undefined)	.	.	-0.9	2	.
COCCCNCCCOc1ccc(C(C)(C)c2ccccc2)cc1	-24	-8%	1.7	4	-24
CCS(=O)(=O)c1ccc2oc(Nc3ccc(C(C)(C)C)cc3)nc2c1	8	16%	2.0	4	.
Cc1cc(NC2C3CC4CC(C3)CC2C4)n2ncnc2n1 (centres undefined)	-6	-13%	-0.3	-8	-26
CC(=O)n1c(C=Nc2ccc(Cl)cc2)c(O)c2ccccc21	.	1%	-16	0	.
CCOC(=O)COn1c(=O)c(-c2ccc(OC)c(OC)c2)[n+]([O-])c2ccccc21	-6	-14%	-6.2	-17	-27
NC(=O)c1cc(N)ccc1N1CCCC1	0	1%	-7.9	6	-23
Cc1ccccc1CN1C[C@@H]2C[C@@H](c3ccc4nsnc4c3)N3CCC[C@@]23C1=O	6	-9%	0.7	-5	.
Cc1cccc(CNS(=O)(=O)c2csc(C(N)=O)c2)c1	.	.	-3.1	-3	.
COc1ccc(CCNC(=O)C2CCCN(Cc3nc(-c4cccc(Cl)c4)oc3C)C2)cc1OC (centres undefined)	-14	7%	-1.0	95	-14
O=C(N/N=C/C1CCCCC1)c1ccccc1-n1cccc1	.	.	0.2	-10	.
CCOc1ccc(NC(=O)CN(C)C(=O)c2cc3c(s2)CCCCC3)cc1OCC	.	.	-1.4	-5	.
CCC(C)(C)C1CCC2(CC1)NC(=O)N(CC(=O)N(C)CC(=O)Nc1ccccc1C(F)(F)F)C2=O (centres undefined)	.	.	1.1	8	.
COc1ccc(S(=O)(=O)N2CC(=O)Nc3ccccc32)cc1F	.	.	-0.5	-5	.

For convenience, part of the list above.
SMILES	Arbovirus inh	Mtb H37Rv	RecA splice inh	Mtb bLac sens	YopH PTP inh	others
O=C1CN(C(=O)COC(=O)CCNS(=O)(=O)c2ccc(Cl)cc2)c2ccccc2N1	.	-10%	0.3	-4	.
O=C(O)C(c1ccccc1)N1C(=O)c2cccc3cccc(c23)C1=O (centres undefined)	.	.	-3.0	-5	.
COc1cccc(C(C)NC(=S)NCc2ccc(F)cc2)c1 (centres undefined)	.	.	12	-6	.
Cn1c(=O)[nH]c(=O)c2c1nc(SCCO)n2Cc1ccccc1Cl	.	.	-0.1	1	.
CCN1C(=O)c2cccc3c(S(=O)(=O)NC(Cc4c[nH]c5ccccc45)C(=O)O)ccc1c23 (centres undefined)	5	-2%	-7.1	2	-30
Cc1ccccc1OCC(=O)OCC(=O)NCc1ccco1	.	.	1.7	3	.
COc1ccc(SCCN2CCN(CC(C)C)CCC2=O)cc1	.	-5%	0.0	-5	.
O=C1Nc2ccc(Br)cc2C1(O)c1ccccc1 (centres undefined)	.	.	-0.9	2	.
COCCCNCCCOc1ccc(C(C)(C)c2ccccc2)cc1	-24	-8%	1.7	4	-24
CCS(=O)(=O)c1ccc2oc(Nc3ccc(C(C)(C)C)cc3)nc2c1	8	16%	2.0	4	.
Cc1cc(NC2C3CC4CC(C3)CC2C4)n2ncnc2n1 (centres undefined)	-6	-13%	-0.3	-8	-26
CC(=O)n1c(C=Nc2ccc(Cl)cc2)c(O)c2ccccc21	.	1%	-16	0	.
CCOC(=O)COn1c(=O)c(-c2ccc(OC)c(OC)c2)[n+]([O-])c2ccccc21	-6	-14%	-6.2	-17	-27
NC(=O)c1cc(N)ccc1N1CCCC1	0	1%	-7.9	6	-23
Cc1ccccc1CN1C[C@@H]2C[C@@H](c3ccc4nsnc4c3)N3CCC[C@@]23C1=O	6	-9%	0.7	-5	.
Cc1cccc(CNS(=O)(=O)c2csc(C(N)=O)c2)c1	.	.	-3.1	-3	.
COc1ccc(CCNC(=O)C2CCCN(Cc3nc(-c4cccc(Cl)c4)oc3C)C2)cc1OC (centres undefined)	-14	7%	-1.0	95	-14
O=C(N/N=C/C1CCCCC1)c1ccccc1-n1cccc1	.	.	0.2	-10	.
CCOc1ccc(NC(=O)CN(C)C(=O)c2cc3c(s2)CCCCC3)cc1OCC	.	.	-1.4	-5	.
CCC(C)(C)C1CCC2(CC1)NC(=O)N(CC(=O)N(C)CC(=O)Nc1ccccc1C(F)(F)F)C2=O (centres undefined)	.	.	1.1	8	.
COc1ccc(S(=O)(=O)N2CC(=O)Nc3ccccc32)cc1F	.	.	-0.5	-5	.

(cont.)
SMILES	Arbovirus inh	Mtb H37Rv	RecA splice inh	Mtb bLac sens	YopH PTP inh	others
Cc1cc(CNC(=O)COc2ccc(F)cc2Cl)cc(C)c1O	0	5%	7.8	2	.
COC(=O)c1sc2ccccc2c1N	0	3%	-2.8	1	-10	Arbovirus inh repeat=1
CCCc1cc(=O)[nH]c(SCC(=O)N2CCN(S(=O)(=O)c3ccc(C)cc3)C2)n1	14	4%	0.0	1	-13	Arbovirus inh repeat=0
Cc1cc(=O)nc2c3ccccc3n(C(C)C(=O)NCCN3CCOCC3)n12 (centres undefined)	.	.	-2.9	1	.
COc1ccccc1NC(=O)c1nn(-c2ccccc2)ccc1=O	-4	-7%	0.6	0	-38
COC(=O)CSc1snnc1-c1ccc(Cl)cc1Cl	-6	0%	5.2	26	-3
CCN1CCN(C(=O)Cn2nc(C)n3c(cc4c(OC)cccc43)c2=O)CC1	.	.	-3.0	2	.
Cn1c(=O)[nH]c(=O)c2c1nc(N1CCNCC1)n2Cc1cccc2ccccc12	3	3%	0.5	-12	-32
CSc1ccc(C2C(C#N)=C(N)N(c3ccccc3)C3=C2C(=O)CCC3)cc1 (centres undefined)	11	-3%	-6.9	33	-4	Arbovirus inh repeat=7
CCCCOc1ccc(Cc2c(COCC)[nH]c(=S)[nH]c2=O)cc1	-14	-6%	0.0	-5	.
COC(=O)c1ccc(CSc2ncnc3ccccc23)o1	-3	5%	16	0	-47
CCCCNC(=O)CN1CCC2(O)CCCCC2C1c1ccccc1OC (centres undefined)	18	-9%	0.1	-5	-27
COC(=O)c1cc(NC(=O)C2(S(=O)(=O)c3ccc(C)cc3)CC2)cc(C(=O)OC)c1	-6	-6%	0.4	-4	-20
CCN(CC)C(=O)C1CCC(CNS(=O)(=O)c2cccc3nsnc23)CC1 (centres undefined)	.	.	1.7	0	.
CS(=O)(=O)N(CC(=O)Nc1ccccc1Br)Cc1ccccc1	.	.	0.3	-4	.
Cc1cccc(NC(=O)CC(C)(C)C)c1	-3	-3%	-2.0	4	-27
CCOC(=O)c1ccc2nc(NC(NC(C)=O)(C(=O)OC)C(F)(F)F)sc2c1 (centres undefined)	5	7%	0.7	-1	-41
CCOC(=O)N1CCN(CC(=O)Nc2ccc(C)c(Br)c2)CC1	3	.	-0.1	-28	-13
CCC(C(=O)NC1CCCC1)N(C(=O)Cn1nnc(-c2ccc(C)o2)n1)c1ccc(OC)cc1 (centres undefined)	.	.	0.0	-3	.
CC(=O)Nc1ccc(S(=O)(=O)NCC2CCC(C(=O)N3CCCCC3)CC2)cc1 (centres undefined)	.	.	1.2	-3	.
COc1ccccc1-n1c(O)c(C=NCc2ccccn2)c2ccccc2c1=O	.	-3%	-1.8	3	.
Cc1cc2ncc(-c3cccs3)nc2cc1C	.	.	-4.0	27	.
CSCCn1c(C(C)(C)C)cc(C(=O)O)c1C	.	-1%	-4.5	-10	.
CCCc1cc(=O)[nH]c(SCC(=O)Nc2ccc3c(c2)CCC3)n1	6	7%	0.1	1	.
COc1ccc(NC(=O)C(=O)NCC(c2ccco2)N2CCc3ccccc3C2)cc1OC (centres undefined)	.	.	0.2	-8	.
CN(C(=O)CCN1CCCO1)C1CCCN(Cc2ccccc2F)C1 (centres undefined)	.	.	0.5	-1	.
CCC(C)N(CCNC(=O)CC1Oc2ccc(C)cc2NC1=O)C1CCCCC1 (centres undefined)	-3	-5%	-1.7	?	-24
Cc1nnc(SCC(=O)c2ccc(C(C)C)cc2)s1	5	2%	-2.0	4	.
Fc1cccc(COc2ccccc2C(=S)N2CCCC2)c1	-1	6%	3.2	-11	.
CCOC(=O)c1[nH]c2ccccc2c1NC(=S)Nc1cccc(C)c1	-1	.	2.0	-2	-43

3 compounds out of the list, arranged by length of the SMILES, largest number first.
SMILES	Arbovirus inh	Mtb H37Rv	RecA splice inh	Mtb bLac sens	YopH PTP inh	others
CCCc1cc(=O)[nH]c(SCC(=O)Nc2ccc3c(c2)CCC3)n1	6	7%	0.1	1	.
Cc1nnc(SCC(=O)c2ccc(C(C)C)cc2)s1	5	2%	-2.0	4	.
Cc1cc2ncc(-c3cccs3)nc2cc1C	.	.	-4.0	27	.

More structures follow.
SMILES	Arbovirus inh	Mtb H37Rv	RecA splice inh	Mtb bLac sens	YopH PTP inh	others
COC(=O)c1ccc(NS(=O)(=O)c2ccccc2)o1	4	11%	-1.0	9	.
CCc1ccc(NC(=O)c2cc(-c3ccc(F)cc3)on2)cc1	-6	26%	-0.2	2	.
C/C(=N\NC(=O)CNC(=O)c1ccc2c(c1)OCO2)c1ccco1	-2	-2%	-1.3	-7	-19
O=C(NCCCn1ccnc1)c1cc(-c2ccccc2)on1	-10	-1%	0.4	2	.
COC(=O)c1ccc(Oc2nc(C)cc(Oc3ccccc3)n2)cc1	-3	4%	3.2	4	8
Cc1cc(/C=C2\C(=O)NC(=O)N(c3ccc(F)cc3)C2=O)c(C)n1-c1ccc(C(=O)O)cc1	-3	-7%	-1.2	-11	.
CN(CC1CCCO1)S(=O)(=O)c1ccc(C(=O)Nc2ccc3c(c2)OCO3)cc1 (centres undefined)	0	.	-1.0	5	.
CCn1c(=S)[nH]c2cc(S(=O)(=O)N3CCCCC3)ccc21	1	-8%	0.8	-1	-42
CCOC(=O)/C(=C\c1ccc(C)cc1)NC(=O)c1ccccc1	-9	-7%	-0.1	0	.
CCOC(=O)c1cnc2c(C(=O)OC)cccc2c1NCCN1CCOCC1	-2	-7%	-0.3	41	-5
O=C(O)CCCN1C(=O)c2ccc(Oc3cccc([N+](=O)[O-])c3)cc2C1=O	5	7%	-0.7	-3	.
Cc1ccc(Nc2nnc(C(C)(C)C)c(=O)n2N)cc1	1	5%	-1.5	9	-35

Compound activity as filed in PubChem.
